KSHV LANA nucl: LANA-nucleosome interaction inhibition; FITC-LANA1-23 / chicken nucleosome fluorescence polarization; active compounds read low; z-score (no concentration beside the values); 51,000 tested, 0.3% active; AID 720717;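 active means both repeat wells score below -2 in polarization z-score versus plate sample wells, excluding overly bright wells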;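 further: 100 nL library stock added to about 30 µL; numbers are from one replicate; some results filed as inactive read as strong as hits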
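Assay system: FITC-LANA peptide and chicken nucleosomes; input: 240 nM purified chicken nucleosomes (480 nM peptide binding sites), final; also added: 50 nM FITC-LANA1-23 probe; medium: TEN-BT buffer, pH 7.5; doses: pin-transferred compound, 100 nL; times: 10–45 min, room temperature; technique: fluorescence polarization; replication: duplicates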
BasE inh: BasE siderophore biosynthesis inhibition; inhibition, % (test concentration not listed); purified BasE, fluorescence polarization binding displacement; 84,000 tested, 0.1% active;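 active means both replicates above 25% with normal brightness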;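 further: 0% = negative plate control signal and 100% = positive plate control signal; stock transfer was 100 nL into about 30 µL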
* hit, by the source's call; x = no result given; & = joins results of further samples. These rows are one share of the data; rates above refer to the full screens.

entry | mol | KSHV LANA nucl | BasE inh
1 | CCCCNS(=O)(=O)c1cccc(C(F)(F)F)c1 | x | 0.3
2 | COc1ccc(-c2noc(N3CC(C)CC(C)C3)n2)cc1OC (configuration not stated) | 0.41 | -1.1
3 | O=C(CCc1nc2cccnc2n1-c1ccccc1)NC1CCCCC1 | 0.33 | 0.3
4 | CC1CN(C(=O)COC(=O)c2cccc3ccccc23)CC(C)O1 (configuration not stated) | x | 1.5
5 | O=C(NCc1ccc2c(c1)OCO2)C1CCCN1C(=O)NCc1ccccc1 (configuration not stated) | 0.66 | -3.0
6 | O=C1c2ccccc2C(=O)N1CCCCn1nnc(-c2ccc(F)cc2)n1 | x | 0.2
7 | CCc1ccccc1Nc1nc(N)nc(CNCc2ccc(F)cc2)n1 | x | 6.0
8 | NC(=O)c1ccc(NC(=O)Cc2coc3cc4c(cc23)CCC4)cc1 | x | -0.9
9 | COc1ccc(-c2cc(=O)oc3cc4occ(C)c4cc23)cc1 | 0.56 | -2.3
10 | O=C(/C=C/C=C/c1ccc2c(c1)OCO2)N1CCCCC1 | 0.57&0.15&-1.1 | -0.9&-3.0
11 | O=C(CNc1cccc(C(F)(F)F)c1)N/N=C/c1ccc2c(c1)OCO2 | x | 1.6
12 | CCOc1ccccc1C(=O)NC(C(=O)OC)C(C)C (configuration not stated) | x | 1.2
13 | CNC(=O)COc1ccccc1C(F)(F)F | 0.49 | -0.6
14 | COc1cc(-c2n[nH]c(=S)n2C)cc(OC)c1OC | 1.3 | -0.1
15 | CC1(C)COCN1C(=O)c1cc2c(=O)n3ccccc3nc2s1 | 0.023 | 2.6

Quoted at random: 3 records from the list
entry | mol | KSHV LANA nucl | BasE inh
7 | CCc1ccccc1Nc1nc(N)nc(CNCc2ccc(F)cc2)n1 | x | 6.0
1 | CCCCNS(=O)(=O)c1cccc(C(F)(F)F)c1 | x | 0.3
8 | NC(=O)c1ccc(NC(=O)Cc2coc3cc4c(cc23)CCC4)cc1 | x | -0.9

In another format: results already given.
Value order – KSHV LANA nucl, BasE inh
9) COc1ccc(-c2cc(=O)oc3cc4occ(C)c4cc23)cc1
    0.56, -2.3
10) O=C(/C=C/C=C/c1ccc2c(c1)OCO2)N1CCCCC1
    0.57&0.15&-1.1, -0.9&-3.0
11) O=C(CNc1cccc(C(F)(F)F)c1)N/N=C/c1ccc2c(c1)OCO2
    x, 1.6
12) CCOc1ccccc1C(=O)NC(C(=O)OC)C(C)C (configuration not stated)
    x, 1.2

Further entries follow:
entry | mol | KSHV LANA nucl | BasE inh
16 | CCOC(=O)C1=C(C)NNC(=Nc2cccc(C)c2C)S1 | x | -5.0
17 | O=C(NC(=O)c1ccccc1Cl)NC1CC1 | x | 3.8
18 | O=C(NCCc1ccccc1)c1cc(=O)[nH]c2ccccc12 | x | -1.3
19 | Cc1ccc(/C=N/NC(=O)C2CC23CCC3)cc1 (configuration not stated) | -0.15 | 2.6
20 | Cc1noc(C)c1C(=O)N1CCN(C(=O)c2ccco2)CC1 | 0.26 | 2.4
21 | S=C(NCCc1ccccc1)NN1CCOCC1 | -0.13 | -0.2
22 | CCN1C(=O)N/C(=C/c2cn(CC(=O)Nc3ccc(F)cc3)c3ccccc23)C1=O | 0.75 | -1.2
23 | COc1ccccc1C(=O)N(C)S(=O)(=O)c1ccc(C)cc1 | x | -0.7
24 | OC(CNCc1ccc(F)cc1)c1ccccc1 (configuration not stated) | -0.51 | 2.2
25 | Cn1ccc(=O)[nH]c1=O | x | 1.6
26 | COc1ccccc1NC(=O)c1ccc2c(c1)C(=O)N(Cc1ccncc1)C2=O | 0.94 | 0.8
27 | CCS(=O)(=O)c1ccc(OC)c(NC(=O)c2cc3ccccc3o2)c1 | -0.14 | 0.7
28 | CN(CC(=O)Nc1ccccc1Cl)C(=O)c1cc(=O)[nH]c2ccccc12 | x | 0.0
29 | COC(=O)C1CCN(Cc2csc(-c3ccccc3OC)n2)CC1 | x | -1.7
30 | Cc1cc(C(=O)OCCCc2nc(-c3ccccc3)no2)c2ccccc2n1 | x | 0.3
31 | CCOC(=O)c1c(C)oc2c1c1c(c3ccccc32)OCN(CCC(=O)O)C1 | x | 2.7
32 | Cc1cc(C2=Nc3ccccc3SC2)ccc1Cl | x | 1.9
33 | O=C(CSc1ccccn1)N/N=C/c1ccccc1 | -0.35 | 4.1
34 | COc1cccc(CNC(=O)CCCN2C(=O)CSc3ncccc32)c1 | -0.57 | 1.4
35 | O=C1C=CC(=O)C(CCC2=CC(=O)C=CC2=O)=C1 | -0.35 | 3.9
36 | CCC1=NN2C(=N)/C(=C/c3cn(CCOc4cccc(OC)c4)c4ccccc34)C(=O)N=C2S1 | -0.35 | -1.8
37 | C=CCn1cc(C)c(=O)n(CC=C)c1=O | -0.14 | 1.9
38 | O=C(O)c1ccccc1NCCC1=CCCCC1 | x | 2.0
39 | N#CC1=C(N)N(c2ncn[nH]2)C2=C(C(=O)CCC2)C1c1ccc(Br)cc1 (configuration not stated) | -0.17 | -0.9
40 | CCCn1c(CCC(=O)Nc2ccc(C)cc2)nc2cccnc21 | -0.48 | 1.5
41 | O=C(Cn1cnc2c(nnn2Cc2ccc(Cl)cc2)c1=O)N1CCc2ccccc21 | -0.046 | 5.0
42 | CCOC(=O)Nc1ccc2c(COC(=O)C3COc4ccccc4O3)cc(=O)oc2c1 (configuration not stated) | x | 2.7
43 | Cc1cc(N2CCOCC2)nc(-c2ccccc2O)n1 | -0.049 | 1.6
44 | CCOC(=O)c1ccccc1NC(=O)Cc1ccc(OC)c(S(=O)(=O)N2CCOCC2)c1 | x | -3.7
45 | CC(C)(C)OC(=O)Nc1cccc(C(=O)OCCCn2c(=O)[nH]c3ccccc32)c1 | x | 1.1
46 | CC1CCCC(C)N1NC(=O)c1ccc(Cl)c(S(N)(=O)=O)c1 (configuration not stated) | 0.42&0.56 | -1.0
47 | CCC(CC)NC(=O)Nc1ccccc1C | 0.021 | -1.4
48 | CCn1c(SCc2nnc(-c3ccccc3)o2)nc2sc(C)c(C)c2c1=O | x | 1.1
49 | CNC(=O)c1ccc(OC)c(S(=O)(=O)NC)c1 | -0.96 | 0.8
50 | Cn1c(SCC(=O)c2ccc(Cl)cc2)nnc1-c1ncc(C(F)(F)F)cc1Cl | x | -0.2
51 | S=C(/N=c1/sccn1Cc1ccccc1)NC1CC1 | x | -0.2
52 | CCOc1ccc(NC(=O)C2CC(=O)NC(=Nc3ccccc3)S2)cc1 (configuration not stated) | 0.55 | -0.1
53 | O=S1(=O)CCN2N=C(c3ccccc3)C(c3ccccc3)=NC2=N1 | x | -0.6
54 | CCN1CCCC1CNC(=O)CS(=O)Cc1nc(-c2ccc(OC)c(OC)c2)oc1C (configuration not stated) | -0.2 | -2.1
55 | CC(=O)N1CCC2(CC1)OC(=O)C(C)=C2C(=O)N1CCOCC1 | 0.54 | -2.8
56 | Cc1ccccc1NC(=O)C(CC(C)C)N1C(=O)c2ccccc2C1=O (configuration not stated) | x | 1.9
57 | CC(=O)Nc1nc2c(C)cccc2s1 | x | -1.7
58 | CCOC(=O)c1c(CS(=O)(=O)Cc2ccc(Cl)cc2)oc2c(F)c(F)c(F)c(F)c12 | x | 1.0
59 | Cc1cc(C(=O)Cn2cc(S(=O)(=O)N(C)C)ccc2=O)c(C)n1-c1ccc2c(c1)OCO2 | x | 2.9
60 | CN1CCc2nc(NC(=O)CC3Sc4ccccc4NC3=O)sc2C1 (configuration not stated) | x | -2.4
61 | Cc1cc2c(n1-c1ccc(C(=O)O)cc1)CCCC2 | 0.84 | 31*
62 | COc1ccc(-n2ccnc(NCCc3ccccc3)c2=O)cc1 | -0.2 | 0.0
63 | O=C(Nc1nc2ccccc2s1)C1c2ccccc2Oc2ccccc21 | x | 0.6
64 | CCOC(=O)/C(C#N)=C/Nc1ccc2oc(=O)c(NC(C)=O)cc2c1 | 0.21 | 0.5
65 | O=C(O)c1n[nH]c(=S)n1C1CC1 | x | 2.1
66 | CCN(CC)Cc1ccc(C(=O)NN)o1 | x | -0.9
67 | CC(C)OC(=O)CSc1nnnn1C | -1.5 | 0.1
68 | CCCCCCCC/C=C\CCCCCCCC(=O)OC[C@@H](O)COP(=O)(O)O | -0.32 | -1.9
69 | N#CC1=C(N)N(N2CCOCC2)C2=C(C(=O)CC(c3ccccc3)C2)C1c1ccc(Cl)cc1 (configuration not stated) | 0.22 | -1.0
70 | Cc1nnc(N2C(=O)C(=O)/C(=C(/O)c3ccc(OC(C)C)cc3)C2c2ccco2)s1 (configuration not stated) | -0.92 | 3.1
71 | Cc1ccc(SCC(=O)N2CCc3ccccc32)cc1 | x | -1.3
72 | O=C(NCCn1cc(SCC(=O)N2CCOCC2)c2ccccc21)c1cccs1 | -0.72 | -1.0
73 | COc1cc(/C=C/C(=O)OCC(=O)Nc2c(C)n(C)n(-c3ccccc3)c2=O)ccc1OCC#N | x | 1.8
74 | CC1C/C(=N/NC(=O)Cc2cn3ccsc3n2)CC(C)(C)C1 (configuration not stated) | x | -2.4
75 | CCC(CCC(=O)Nc1nccs1)C(=O)O (configuration not stated) | 0.082 | 2.4

Additional compounds follow:
entry | mol | KSHV LANA nucl | BasE inh
76 | COc1ccc2occ(C(=O)c3coc4ccc(O)c(CN(C)C)c34)c2c1 | 0.092 | -3.7
77 | CN1/C(=C\C(=O)CN2CCN(c3ccc(F)cc3)CC2)C(C)(C)c2ccccc21 | x | -0.6
78 | Cc1cccc(-c2nnn3c2nc(N2CCN(C(=O)c4ccco4)CC2)c2cc(Cl)ccc23)c1 | 0.73 | -2.1
79 | CC(NC(=O)CN1CCc2sccc2C1c1cccs1)c1ccc2c(c1)OCCO2 (configuration not stated) | x | -1.6
80 | COc1cccc(-n2c(=O)c3ccccc3n3c(SCCN(C)C)nnc23)c1 | x | -0.4
81 | C=CCn1c(O)c(N=N)c2ccccc21 | -0.2 | -1.2
82 | COC(=O)c1ccc2c(c1)N(Cc1nc(-c3cccc(C)c3)oc1C)C(=O)C1CCCN21 (configuration not stated) | 0.7 | -0.4
83 | COCCN1C(=O)/C(=C/c2cc(C)n(-c3ccncc3)c2C)C(=O)N(c2ccccc2)C1=O | x | 5.2
84 | NS(=O)(=O)c1ccc(CCN(Cc2nc3ccsc3c(=O)[nH]2)Cc2nc3ccsc3c(=O)[nH]2)cc1 | x | 0.4
85 | O=C(CSc1nnc(NC(=O)C2CC(=O)N(c3ccc(F)cc3)C2)s1)NCC1CCCO1 (configuration not stated) | -0.72 | -0.4
86 | NCc1ccncc1 | x | 0.5
87 | O=c1[nH]c2ccccc2c(=O)n1CCNc1cccc(Cl)c1 | 0.31 | 1.8
88 | O=C(NNc1ncnc2c1cnn2-c1ccc(Cl)cc1)c1cccs1 | -0.27 | -0.2
89 | CC(C)CC(c1ccccc1)C(O)c1ccccc1 (configuration not stated) | x | -1.2
90 | O=C(c1ccc(-c2ccccc2)cc1)N1CCCC1 | 0.12 | -1.2

Full records from above. Screens in order: KSHV LANA nucl, BasE inh
CCOC(=O)Nc1ccc2c(COC(=O)C3COc4ccccc4O3)cc(=O)oc2c1 (configuration not stated) across the screens: x, 2.7
CC1(C)COCN1C(=O)c1cc2c(=O)n3ccccc3nc2s1 across the screens: 0.023, 2.6

The listing continues:
entry | mol | KSHV LANA nucl | BasE inh
91 | Cc1ccc(COc2coc(CN3CCN(Cc4ccccc4)CC3)cc2=O)cc1 | 0.1 | 0.6
92 | CCCN(CCC)c1cc(Cl)nc(SC)n1 | -0.88 | x
93 | COc1ccccc1N1CCN(C(C)C(=O)N(C)Cc2ccccc2)CC1 (configuration not stated) | x | 1.4
94 | CCC(CC)NC(=O)c1ccc2c(c1)OCCO2 | x | 0.2
95 | O=C1CC2CCCC(CN1)N2CC(=O)N1CCCCCC1 (configuration not stated) | 0.7 | -1.4
96 | O=C(Nc1ccc(Br)cc1F)c1ccc2c(c1)N(Cc1ccccc1)C(=O)CS2=O (configuration not stated) | 0.28 | 0.2
97 | COc1cc(Br)cc(/C=N/O)c1O | -0.37 | x
98 | O=C(CSc1n[nH]c(=O)n1Cc1ccco1)Nc1ccccc1 | x | 0.2
99 | CC(C)(C)OC(=O)N1CCC(C(=O)Nc2nnc(-c3ccc(Cl)cc3)o2)CC1 | x | 0.7
100 | Cc1ccc(-n2c(C)cc(C(=O)CN3CC(C)OC(C)C3)c2C)cc1 (configuration not stated) | x | 1.5
101 | CCCSc1nnc2n(-c3cc(C)cc(C)c3)c(=O)c3ccccc3n12 | x | 0.3
102 | O=C(NCC1CCCO1)C1CC(=O)N(c2ccccc2)C1 (configuration not stated) | 2.7 | -1.7
103 | Fc1ccc(-c2nn(-c3ccccc3)cc2C=NCc2ccccc2)cc1 | x | 1.5
104 | Cc1ccc(N2C(=O)Nc3ccccc3C2(O)C(=O)N2CC(C)CC(C)C2)cc1C (configuration not stated) | 1.8 | -4.5
105 | O=C(Nc1ccccc1)C(F)C(F)(F)F (configuration not stated) | -0.17 | 0.6
106 | CN(C1CCCCC1)S(=O)(=O)c1ccc(-c2ccc(=O)[nH]n2)o1 | x | -1.0
107 | CC(=O)N1CCCc2ccc(NC(=O)Oc3ccccc3)cc21 | 0.39 | -0.9
108 | Cc1ccc(C(C)N)cc1C (configuration not stated) | 0.43 | -115
109 | COc1ccc(-c2c(C(F)(F)F)nn(C)c2NC(=O)NC(C)(C)C)cc1 | 0.15 | 1.7
110 | COc1ccccc1OC(=O)c1ccc2c(c1)OCCO2 | x | 2.0
111 | COC(=O)c1ccccc1NC(=S)N(Cc1ccco1)Cc1cc2cc(C)ccc2[nH]c1=O | -0.031 | -1.0
112 | CC1(C)OC(=O)C(=Cc2c[nH]c3ccccc23)C(=O)O1 | -1.1 | 3.4
113 | CC(=O)Oc1cccc(/C=c2/sc3nc4ccccc4n3c2=O)c1 | 0.24 | 0.0
114 | CCOC(=O)c1cccc(-n2sc(=O)n(C3Cc4ccccc4C3)c2=O)c1 | x | -1.3
115 | O=c1c2c3c(sc2ncn1-c1ccccc1)CCCC3 | x | -0.5
